Screening results deposited in PubChem BioAssay by National Center for Advancing Translational Sciences (NCATS).
2A Renilla: Primary qHTS Assay for Foot and Mouth Disease Virus Antivirals against NCGC Sytravon and CBC Compound Libraries: Renilla Luciferase Signal. 120,000 compounds, 0.32% hits. HEK cells with a luciferase reporter of 2A StopGo recoding. AID 1745857, 2022. Potency, µM (doses to about 57.5 µM), without a hit: at the highest dose signal change, negative = less light; active means well fitted falling curve with a large enough effect; inconclusive means small, poorly fitted or top-dose-only effect; inactive means no such curve, though single readings can be large or run the other way; also: nearly all actives have a fitted effect of over 55% in size; overnight with compound
StopGo FLuc: Primary qHTS Assay for Foot and Mouth Disease Virus Antivirals against NCGC Sytravon and CBC Compound Libraries: Firefly Luciferase Signal. HEK cells with a luciferase reporter of 2A StopGo recoding. AID 1745856, 2022. Potency, µM (doses to about 57.5 µM), inactives show at the highest dose signal change, negative = less light. 120,000 compounds, 0.23% hits; active = well fitted falling curve with a large enough effect; inconclusive = small, poorly fitted or top-dose-only effect; inactive = no such curve, though single readings can be large or run the other way; also: nearly all actives have a fitted effect of over 60% in size; overnight with compound
Starred values were filed as active, the others as inactive; ? = inconclusive; & = joins results of further samples; [ ] = remark or other dose. % is scaled to controls: 0 for no effect and ±100 for the full control effect; potency is read from the fitted curve at half-maximal effect. The list is partial; rates above refer to the full screens.

SMILES	2A Renilla	StopGo FLuc
Cc1ccc(-c2nc(CN3CCCC3c3nnc4ccccn34)co2)c(C)c1 (stereo unspecified)	4%	5%
Cc1ccc2oc(C(=O)Nc3ccc(S(=O)(=O)Nc4nccc(C)n4)cc3)cc(=O)c2c1	-13%	-14%
CCNC(=O)NC(=O)CSc1ccc2ccccc2n1	10%	70%[activator]
CCCSc1nc(N2CCOCC2)c2c(c1C#N)CCCC2	4%	-3%
COCC(=O)N1c2nc(-c3ccco3)nn2C2(CCCCC2)[C@@H]2CCCC[C@@H]21	3%&-6%	5%&-23%
COc1cccc(N2C(=O)CSC23C(=O)N(CC(=O)NCc2ccc(C)cc2)c2ccccc23)c1 (stereo unspecified)	21%	6%
COC(=O)c1ccccc1NC(=O)c1ccc2c(c1)CCN2S(=O)(=O)c1ccc(Cl)cc1	4%	-1%
Cc1cc(OCC(=O)N2CCCCC2CCN2CCOCC2)cc(C)c1Cl (stereo unspecified)	-15%	-21%
CC(C)C(=O)Nc1ccccc1Sc1ccccc1	0%	15%
CCOc1ccc(CCNC(=O)CCn2c(=O)c3cccn3c3cccnc32)cc1	-6%	-14%
CCc1ccccc1NC(=O)c1ccc2c(c1)CCN2S(C)(=O)=O	19%	74%[activator]
CC1(C)CC(=O)c2cc3c(N)c(C#N)sc3nc2C1	12%	0%
COC(=O)c1cnc(N2CCN(c3ccccc3F)CC2)c2ccccc12	0%	1%
Cc1ccc(C(=O)NCC(C)(C)CNC(=O)c2ccc(C)o2)o1	17%	14%
Cc1ccccc1CN1C(=O)c2ccccc2Sc2ccc(C(=O)NC3CCCCC3)cc21	1%	-12%
CC(NC(=O)C1CCN(S(=O)(=O)c2ccc3nc4c(c(C(=O)O)c3c2)CCCC4)CC1)c1ccccc1 (stereo unspecified)	-10%	1%
Cc1ccc(-n2nnnc2SCc2nc3ccsc3c(=O)[nH]2)cc1	6%	42%[activator]
COc1ccc(-c2nc(CNC(=O)NC3CCCCC3)c(C)o2)c(OC)c1	18%	-15%
CC(C)c1cc(-c2nc(-c3ccc(Br)cc3)no2)n[nH]1	-10%	122%[activator]
O=C1CCCC2=C1C(c1ccccc1Cl)CC(=O)N2c1ccc(F)cc1F (stereo unspecified)	22%	-1%
CCc1nn(CC(=O)NCc2ccccc2Cl)c(=O)c2cccn12	16%	6%
CCOC(=O)c1c(C)c(-c2ccccc2)n(CC(=O)NC2CCCCC2)c1C	7%	4%
CCCCCNC(=O)C(=O)NCC(c1ccc2c(c1)OCO2)N1CCOCC1 (stereo unspecified)	-13%	10%
CCOC(=O)c1ccc(N2CC3=C(C2=O)C(c2ccc(OC)cc2)NC(=O)N3C)cc1 (stereo unspecified)	-1%&-6%	3%&-19%
O=C(c1ccccc1F)N1CCN(c2cn[nH]c(=O)c2Cl)CC1	-4%	9%
Cc1ccc(-c2nc3ccccc3o2)cc1NC(=O)Cc1cccs1	-1%	72%[activator]
COc1ccc(CCn2c3c(c(=O)[nH]c2=O)C(NC(=O)c2ccc(Cl)cc2)(C(F)(F)F)C(=O)N3)cc1OC (stereo unspecified)	-1%	-4%
O=C(OCc1nc(-c2ccc(OC(F)(F)F)cc2)no1)c1ccc2c(c1)OCO2	0%	0%
CC(C)Cc1nn2c(=O)cc(COC(=O)c3ccc(NC(=O)c4cccs4)cc3)nc2s1	29%	110%[activator]
CSc1ccccc1C(=O)Nc1ccc(C(C)C)cc1	5%	37%[activator]
Cn1c(SCc2coc(-c3cccs3)n2)nnc1-c1ccccc1F	13%	67%[activator]
COc1cc(-c2c(C#N)c(N)nc3c2CN(C)CC3)cc(OC)c1OC	-1%	11%
CCCCn1c(=O)[nH]c(=O)c2c1nc(COC(=O)C1CCCC1)n2CC	-7%	-5%
O=S(=O)(c1ccc(Oc2ccc3ccccc3c2)nc1)N1CCCCC1	2%	15%
CC(=O)N1N=C(c2ccc(NS(C)(=O)=O)cc2)CC1c1ccc2nccnc2c1 (stereo unspecified)	7%	24%
COc1cc2cc(C3CC(c4ccco4)=NN3S(C)(=O)=O)c(Cl)nc2cc1OC (stereo unspecified)	117%[activator]	15%
Cc1ccc2oc(C(=O)Nc3nonc3-c3ccc(C(C)C)cc3)cc(=O)c2c1	-5%	1%
O=C(C1=C(c2ccccc2)S(=O)(=O)CCO1)N(Cc1ccc(Cl)cc1)c1ccccn1	?	14%
CC1=C(C(=O)Nc2ccccc2C)C(c2sccc2C)n2ncnc2N1 (stereo unspecified)	-14%	-13%
O=C(c1ccco1)N(Cc1cccnc1)c1nc2c(F)cccc2s1	9%&-7%	0%&21%

Profiles from above. Order of values: 2A Renilla | StopGo FLuc
CC(=O)N1N=C(c2ccc(NS(C)(=O)=O)cc2)CC1c1ccc2nccnc2c1 (stereo unspecified) is entered as 7% | 24%
CC(C)Cc1nn2c(=O)cc(COC(=O)c3ccc(NC(=O)c4cccs4)cc3)nc2s1 is entered as 29% | 110%[activator]
O=C(C1=C(c2ccccc2)S(=O)(=O)CCO1)N(Cc1ccc(Cl)cc1)c1ccccn1 is entered as ? | 14%

Reprinted at random: three entries already listed, in no set order.
SMILES	2A Renilla	StopGo FLuc
Cc1ccccc1CN1C(=O)c2ccccc2Sc2ccc(C(=O)NC3CCCCC3)cc21	1%	-12%
CCNC(=O)NC(=O)CSc1ccc2ccccc2n1	10%	70%[activator]
CCc1ccccc1NC(=O)c1ccc2c(c1)CCN2S(C)(=O)=O	19%	74%[activator]

Next section:
SMILES	2A Renilla	StopGo FLuc
Cc1nn(-c2ncccn2)c2c1C(c1cccc(OCC(C)C)c1)CC(=O)N2 (stereo unspecified)	15%	19%
C/C=C/C=C/C(=O)NCc1ccc(OC)cc1	2%	23%
O=C(NNC(=O)C1CCCCC1)c1ccc(F)cc1	15%	0%
Cc1ccc(NC(=O)c2nc(S(C)(=O)=O)ncc2N(Cc2ccco2)Cc2ccco2)cc1	34%&34%[activator]	-8%&-17%
Cc1cc(-c2nc3ccccc3s2)ccc1NC(=O)c1ccccc1C	22%	84%[activator]
CC1(C)Cc2cccc(Oc3nc4ccccc4o3)c2O1	18%	0%
CCOC(=O)Cc1cc(C(=O)Nc2ccc(Br)cc2)sc1-c1ccc(C)cc1	1%	8%
CCCNC(=O)c1cc(-c2ccccc2OC)nc2ccccc12	10%	9%
COc1ccc(CCNC(=O)c2ccc3nc(CCc4ccccc4)oc3c2)cc1OC	-9%	16%
N#C/C(=C/c1cccc(F)c1)S(=O)(=O)c1ccc(Br)cc1	17%	13%
O=C(c1ccnc(Cl)c1)N1CCC(c2nc3cc(C(F)(F)F)ccc3s2)CC1	?	11µM*
CCOC(=O)c1cccc(OC(=O)c2ccccc2)c1	10%	19%
NC1(c2ccccc2)CCCCC1	-10%[114 µM]	3%[22.9 µM]
O=C(NCCc1ccc(F)cc1)c1cc2cc(F)ccc2[nH]1	-1%	33%[activator]
CC(=O)Nc1ccc(CNC2CCCc3ccccc32)cc1 (stereo unspecified)	-5%	37%[activator]
O=C1COc2ccc(C(=O)COC(=O)c3ccccc3Cl)cc2N1	7%	0%
COc1cccc(-c2nc(Cn3c(=O)cc(C)c4c(C)nn(-c5ccccc5)c43)c(C)o2)c1OC	-15%	-16%
CCN(CC)C(=S)SCC(=O)NC(Cc1ccccc1)C(C)=O (stereo unspecified)	15%	9%
CC(Oc1ccc2c(C(C)C)cc(=O)oc2c1)C(=O)Nc1cccc(F)c1 (stereo unspecified)	?	?
O=[N+]([O-])c1ccc(NC2CCCCC2)c2ccncc12	-5%	9%
CNC(=S)NNC(=O)c1ccc(C)cc1	1%	18%
O=C(Nc1ccc(O)cc1)c1cc(=O)[nH]c2ccccc12	6%	3%
Cc1cc(C(=O)OC(C)C(=O)Nc2ccc(Cl)cc2Cl)c(C)o1 (stereo unspecified)	13%	13%
Cc1cccc(NC(=O)c2ccc3c(c2)CCC3)c1	13%	0%
Cn1cnc2c1c(=O)n(CCCN1CCC(C(N)=O)CC1)c(=O)n2C	-13%	-5%
CC(C)CCOc1ccc(CN)cc1	-8%	21%
COc1cc(OC)c(C2=CCN(C(=O)COc3ccc(F)cc3)CC2)c(OC)c1	163%[activator]	-11%
CNc1nnc(SCc2ccc(F)cc2Cl)s1	42%[activator]	86%[activator]
CN(C(=O)Cn1nc(C(=O)O)c2ccccc2c1=O)C1CCCCC1	6%	75%[activator]
COc1cc(OC)cc(-c2nnc(SCC(=O)c3ccc([N+](=O)[O-])cc3)o2)c1	4%	10%
COc1cccc(C(=O)c2cn(CC(=O)NCc3ccccc3)c3nc(C)ccc3c2=O)c1	50%	74%[activator]
Cc1ccc(C)c(Cn2c3ccccc3c3cnn(CC(=O)NCCCc4ccccc4)c(=O)c32)c1	?	0%
COCCNC(=O)C(=O)N1CCN(c2nc(CC(C)C)c3c(c2C#N)CCCC3)CC1	-21%	?
Cc1ncncc1C(=O)O	-12%	3%
COc1ccc(-c2nc(CSc3nc4c(=O)[nH]cnc4n3C)c(C)o2)cc1OC	45%[activator]	60%[activator]
O=C(c1cccs1)c1cn(CCOc2ccc(F)cc2)c2ccccc12	27%	0%
CCCc1cc(C(=O)OC)c(NC(=O)CC2Sc3ccc(C(F)(F)F)cc3NC2=O)s1 (stereo unspecified)	-1%	-2%
O=C(Nc1ccc(C(F)(F)F)cc1)C1CCCN(c2cnccn2)C1 (stereo unspecified)	19%	-2%
CC(=O)c1ccc(OCC(=O)NC2CCc3ccccc32)cc1 (stereo unspecified)	9%	0%
Cc1ccc(OCC(=O)Nc2ccc3c(c2)nc(CCNC(=O)c2ccco2)n3C)cc1	-7%	-12%

Not a retest: 2 of the compounds above.
SMILES	2A Renilla	StopGo FLuc
CC(=O)c1ccc(OCC(=O)NC2CCc3ccccc32)cc1 (stereo unspecified)	9%	0%
Cc1ccc(OCC(=O)Nc2ccc3c(c2)nc(CCNC(=O)c2ccco2)n3C)cc1	-7%	-12%

Part of the list above in order of heavy-atom count, lowest first.
SMILES	2A Renilla	StopGo FLuc
CC(C)CCOc1ccc(CN)cc1	-8%	21%
CN(C(=O)Cn1nc(C(=O)O)c2ccccc2c1=O)C1CCCCC1	6%	75%[activator]
O=C(c1cccs1)c1cn(CCOc2ccc(F)cc2)c2ccccc12	27%	0%

Following part:
SMILES	2A Renilla	StopGo FLuc
CCOc1ccc2oc(=O)cc(CN3CCN(C(=O)C4CCCCC4)CC3)c2c1	-2%	-15%
CCC(C)n1c(=O)c2sccc2n2c(CCCC(=O)N3CCN(c4ccccc4)CC3)nnc12 (stereo unspecified)	21%	10%
Cn1cc(CSc2nnc(COc3ccccc3Cl)n2C)cn1	14%	2%
C/C=C/C=C/C(=O)Nc1ccc(NC(C)=O)c(Cl)c1	2%	55%[activator]
COc1cc(NC(=O)C2(n3cnnn3)CCCCC2)cc(OC)c1OC	5%	-7%
Cc1cc(C(=O)NCc2ccc(Cl)cc2)c2c(C)nn(-c3ccccc3)c2n1	-9%	-24%
CCOc1ccc(NC(=O)C(CC(C)C)N2Cc3ccccc3C2=O)cc1 (stereo unspecified)	29%	-20%
CCOc1ccc(-c2ccc(NS(=O)(=O)c3cc(C)c(C)cc3C)cc2)nn1	279%[activator]	-4%
Cc1ccc(C(=O)NC(CN(C)C)c2ccccc2)cc1F (stereo unspecified)	11%	12%
Cc1cc(C)c(S(=O)(=O)N2CCN(C(=O)c3cc4ccccc4oc3=O)CC2)c(C)c1	-18%	-23%
COC(=O)c1ccc(/C=C2\Oc3cc(OS(C)(=O)=O)cc(C)c3C2=O)cc1	-5%	14%
O=C(Nc1ccccc1F)c1ccc2c(Cl)c3c(nc2c1)CCCC3	-21%	72%[activator]
Cc1ccc2c(c1)-c1cccc3cccc(c13)C2=O	3%	0%
CCn1c(=O)c2cc(C(=O)N3CCN(c4cccc(OC)c4)CC3)sc2c2ccccc21	-7%	-18%
CCCNC(C)C(=O)Nc1ccccc1C (stereo unspecified)	-4%	-15%
CCOc1ccccc1C(=O)N(Cc1ccc(N(C)C)cc1)Cc1ccco1	70%[activator]	20%
O=C(OCc1nc2ccccc2o1)c1ccc2ccccc2c1	-7%	12%
O=C(c1ccc(F)cc1)N1c2nc(-c3ccco3)nn2C2(CCCCC2)[C@@H]2CCCC[C@@H]21	-10%	-18%
CCOc1ccc(C(=O)Nc2ncc(C)s2)cc1OCC	3%	44%[activator]
CCC(=O)N1CCCC1Cc1ccccc1 (stereo unspecified)	13%	19%
CC[N+](C)(C)CCOC1CC2CCC1(C)C2(C)C (stereo unspecified)	-6%	2%
CCn1cnc2c1c(=O)n(CC(=O)NCc1ccccc1)c(=O)n2Cc1ccccc1	7%	9%
CC1=C(C(=O)Nc2ccc(C)cc2C)C(c2ccc([N+](=O)[O-])cc2)n2ncc(C(=O)Nc3ccc(F)cc3)c2N1 (stereo unspecified)	-8%	-14%
Cc1cc(C(=O)COc2cccc(C#N)c2)c(C)n1CCC(C)C	?	93%[activator]
CCOc1ccc(CNC(=O)C2CCN(S(=O)(=O)N3CCCCC3)CC2)cc1	-7%	-16%
Cc1ccc(C)c(Nc2nnc(-c3ccc(C)c(S(N)(=O)=O)c3)c3ccccc23)c1	209%[activator]	-12%
O=C1CN(C(=O)CCc2ncc(-c3ccc(Cl)cc3)o2)CCN1	-12%	0%
Cn1c(=O)c2c(nc(N3CCCC3)n2CC(O)CO)n(C)c1=O (stereo unspecified)	-5%	-3%
O=C(O)c1cnc(OCC(F)(F)F)c(Cl)c1	-3%	4%
CCc1ccc(NC(=O)Cn2cc(OC)c(=O)cc2CN2CCN(C(C)=O)CC2)cc1	-5%	-2%
CCc1ccccc1NC(=O)Cn1cnc2c1c(=O)n(C)c(=O)n2C	5%	60%[activator]
